Screening data from PubChem BioAssay.
PINK1 modulator = changes PINK1 expression | PINK1 immunofluorescence, high-content cytometry, 24 h | Potency, µM (top dose mostly 76.6 µM), without a hit: at the highest dose activation (PINK1 increase), hits mostly activators | 410,000 compounds, 0.2% hits; active = well fitted activation curve with a large enough effect; inconclusive = small, poorly fitted or top-dose-only effect; inactive = flat fitted curve, though single readings scatter; cell line not stated here;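 note: potency is the fitted concentration of half-maximal effect; % of control where 0% means no effect; nearly all actives have a fitted effect of over 65% in size; a mitochondrial uncoupler was the plate control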
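Decision-based qHTS: stable cells, 24 h exposure to five compound concentrations, CCCP as control. Fixed cells stained for PINK1 plus nuclear, mitochondrial and cell markers, cytometer read.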
TRPML1 agonist = activates the human TRPML1 channel. Q9GZU1. TRPML1-expressing cells, Ca2+ dye fluorescence, FDSS; host cell line not named in the record; reference of the full effect not given here. activation, % (concentration not given with the values). 410,000 compounds, 0.12% hits. AID 624414; in the data active = activation above about 50%; inconclusive = about 30% to 50%; inactive = below about 30%; note: 0% is about no effect; the text of the record puts the active cut at 80%
Target sequence (Q9GZU1 whole entry, looked up): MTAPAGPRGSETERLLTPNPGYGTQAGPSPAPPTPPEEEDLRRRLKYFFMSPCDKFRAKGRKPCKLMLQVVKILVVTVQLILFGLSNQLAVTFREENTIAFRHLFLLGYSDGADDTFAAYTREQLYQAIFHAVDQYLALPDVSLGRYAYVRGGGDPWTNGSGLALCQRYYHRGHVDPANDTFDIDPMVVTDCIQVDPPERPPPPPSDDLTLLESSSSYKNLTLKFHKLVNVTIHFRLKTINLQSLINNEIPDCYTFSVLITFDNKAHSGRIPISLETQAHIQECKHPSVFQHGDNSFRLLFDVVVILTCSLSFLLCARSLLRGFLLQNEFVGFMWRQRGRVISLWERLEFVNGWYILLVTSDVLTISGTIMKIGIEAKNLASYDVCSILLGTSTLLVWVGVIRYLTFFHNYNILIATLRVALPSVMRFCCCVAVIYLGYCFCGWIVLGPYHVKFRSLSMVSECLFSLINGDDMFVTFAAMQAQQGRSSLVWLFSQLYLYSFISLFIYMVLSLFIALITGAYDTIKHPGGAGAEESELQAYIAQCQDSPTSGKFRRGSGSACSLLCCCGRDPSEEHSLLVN
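In this qHTS format, compounds were pin-transferred onto Ca8-dye-loaded TRPML1-DL cells induced with Tet overnight, and intracellular Ca2+ fluorescence was recorded kinetically for 110 s after a 10 s baseline. A subsequent 4uM final 54-4 (EC80) addition followed by a second 110 s read served as the antagonist phase.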
D2 potentiator = positive allosteric modulators of human D2 dopamine receptor; P14416; DiscoveRx D2 beta-arrestin cells, luminescence, 90 min; 100% = 57 uM dopamine signal; potentiation, % (no concentration beside the values); 360,000 compounds, 0.23% hits; active = potentiation of 50% or more; inconclusive = 30% to 50%; inactive = 30% or less;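 note: compound concentration not given in the record; tested on top of an EC20 dose of dopamine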
Target sequence (P14416 whole entry, looked up): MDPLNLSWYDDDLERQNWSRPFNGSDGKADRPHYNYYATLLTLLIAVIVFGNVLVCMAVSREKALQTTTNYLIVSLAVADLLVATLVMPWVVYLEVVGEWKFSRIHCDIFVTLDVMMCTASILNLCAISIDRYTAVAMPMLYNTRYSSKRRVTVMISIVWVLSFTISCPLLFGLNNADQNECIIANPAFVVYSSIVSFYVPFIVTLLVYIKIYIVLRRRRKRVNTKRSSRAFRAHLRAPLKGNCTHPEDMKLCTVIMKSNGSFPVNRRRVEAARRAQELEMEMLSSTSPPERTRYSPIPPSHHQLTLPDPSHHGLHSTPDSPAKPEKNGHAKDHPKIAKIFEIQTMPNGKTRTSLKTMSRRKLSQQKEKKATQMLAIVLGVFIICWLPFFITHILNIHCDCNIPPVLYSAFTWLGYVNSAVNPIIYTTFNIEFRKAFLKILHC
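PathHunter beta-arrestin assay in DiscoveRx D2 cells. Compounds were added with an EC20 of dopamine (50 nM final) for 90 min at 37 deg C. Luminescence was read 1 h after detection reagent, with 57 uM dopamine as the EC100 control.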
Six1-Eya2 inh = blocks human Six1 binding to Eya2 | Q15475+O00167 | activity change, % (no concentration beside the values) | AlphaScreen GST-Six1/His-Eya2 binding, biochemical; hits give low values; control for the full effect not named in the record | 360,000 compounds, 0.56% hits; in the data active = activity change below about -65%; inconclusive = about -30% to -65%; inactive = above about -30%; note: % is set by controls: 0 for no effect and ±100 for the full control effect
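AlphaScreen with GST-Six1 and His-Eya2 (5X mix: 250 nM and 500 nM), glutathione donor and nickel acceptor beads; buffer 50 mM Tris pH 8.0, 300 mM NaCl, 1 mM TCEP; 1 h at 37 C in the dark.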
D2 agonist = activates the human D2 dopamine receptor | P14416 | DiscoveRx PathHunter D2 beta-arrestin, luminescence, 90 min; 100% = 57 uM dopamine signal | activation, % (test concentration not listed) | 360,000 compounds, 0.084% hits | AID 624465; in the data active = activation above about 40%; inconclusive = about 15% to 40%; inactive = below about 15%; note: compound concentration not given in the record; the text of the record calls up to 30% inactive
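DiscoveRx PathHunter D2 beta-arrestin cells (2,100/well) attached overnight, then compound-stimulated 90 min at 37 C in HBSS/10 mM HEPES/0.1% Tween-20 buffer; beta-galactosidase complementation read by luminescence after 1 h at ambient temperature. Dopamine 57 uM final (EC100) as control.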
CtBP-E1A inh = inhibitors of CtBP/E1A interaction. AID 651724. 340,000 compounds, 0.49% hits. AlphaScreen GST-E1A/His-CtBP binding, 1536-well; hits give low values; control for the full effect not named in the record. activity change, % (no concentration beside the values); in the data active means activity change below about -65%; inconclusive means about -30% to -65%; inactive means above about -30%; note: % is set by controls: 0 for no effect and ±100 for the full control effect
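Steps: dispense buffer (Tris pH 8.0, NaCl 300 mM, TCEP 1 mM, BSA, Tween 20); add 5X protein mix (GST-E1A, His-CtBP, 125 nM each); pin 23 nL compound; 2 h at 37 °C, dark; add 5X beads (50 ug/mL); 1 h; read.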
* hit, by the source's call; u = inconclusive; x = not tested or not shown; & = joins results of further samples; [ ] = another dose, or the depositor's remark. No enrichment for hits; any-hit rate near 1.3%.

SMILES	PINK1 modulator	TRPML1 agonist	D2 potentiator	Six1-Eya2 inh	D2 agonist	CtBP-E1A inh
Cc1ccc(-n2c(=O)[nH]c3cc(C(=O)NC4CCN(Cc5ccccc5)CC4)ccc3c2=O)cc1	8.3%	0.1	-14	1	2.1	2
C/C(=N\NC(=S)NCc1ccccc1)c1ccc(C)o1	-0.9%	1.6	-4	-14	-1.9	-26
c1csc(-c2noc(CN3CCOCC3)n2)c1	-1.8%	0.8	-6	4	4.5	0
CCOC(=O)C1CCCN(c2c(N3CCN(C4CCCCC4)CC3)c(=O)c2=O)C1 (configuration not stated)	2.4%	0.0	-5	5	-2.8	-24
CCOC(=O)C1=C[C@@H](c2ccccc2)N(S(=O)(=O)c2ccc(C)cc2)[C@H]1c1ccc(OC)cc1	1.4%	2.2	-4	1	11	3
O=C(COc1ccc(-c2nnco2)cc1)N1CCN(S(=O)(=O)c2ccccc2)CC1	-1.7%	3.3	22	0	-1.6	2
Cc1ccc(Oc2nc3ccccc3n3c(C)nnc23)cc1	4.5%[38.3 µM]	0.9	3	-2	-4.1	1
c1ccc(-n2nnnc2NCCc2c[nH]c3ccccc23)cc1	-3.1%	0.4	-29	4	-1.4	-7
Cc1ccc(C)c(OCCC(=O)OCC(=O)Nc2ccc(C)c(S(=O)(=O)N3CCCCC3)c2)c1	10.0%	1.9	-21	14	-4.1	3
N#CCc1ccnc2ccccc12	-0.8%	-0.4	2	-3	2.3	0
CCC(=O)Nc1nnc(SCC(=O)c2ccc3c(c2)Cc2ccccc2-3)s1	14%[38.3 µM]	0.8	-5	6	-1.2	11
c1ccc(COc2cccc(-c3cc4nc(NCCCn5ccnc5)ccn4n3)c2)cc1	11%	-0.9	8	-25	u	-21
CCN(CC)CC(=O)N1c2ccccc2Oc2c(c(=O)n(C)c(=O)n2C)C1c1cccc([N+](=O)[O-])c1 (configuration not stated)	4.7%	-0.5	-10	-2	-2.9	6
Cc1cc(C)cc(-n2nnc(C(=O)NCc3ccc4c(c3)OCO4)c2N)c1	-2.5%	0.4	4	-8	-1.7	2
CCN(CC)CCCN(Cc1cc2cc3c(cc2[nH]c1=O)OCCO3)C(=O)Nc1ccccc1	3.0%	0.0	-13	4	-1.8	-4
S=C(Nc1ccc(Br)cc1Cl)NC1CCN(Cc2ccccc2)CC1	20%	1.5	-11	-2	-1.6	-2
O=C(CCNS(=O)(=O)c1cccc2nsnc12)NCCc1ccccc1	-3.5%	-0.3	-10	0	-2.2	10
C=CCSc1ncnc2sc(C)c(C)c12	0.5%	0.1	-7	7	-3.7	x
CCC(C)(C)n1nnnc1C(CC(C)C)N1CCC(C(N)=O)CC1 (configuration not stated)	0.2%	1.0	-12	26	-2.2	36
CS(=O)(=O)N1CCc2ccccc2C1	1.2%	-0.4	-22	5	1.3	6
COc1cccc(CNC(=O)c2cccc(S(=O)(=O)N3CCN(Cc4ccccc4)CC3)c2)c1	0.2%	2.5	12	-12	-5.6	-4
COc1ccc(NC(=O)CN(C)C(=O)c2cc(S(=O)(=O)N3CCCCCC3)ccc2OC)cc1	1.0%	0.3	3	0	-1.6	-13
FC(F)(F)c1nc(-c2ccncc2)ncc1-c1nnnn1-c1ccccc1	-2.9%	-0.3	-7	3	0.1	2
Cc1ccc(C(C)C)cc1S(=O)(=O)NC1CC(C)(C)NC(C)(C)C1	-1.2%	-0.5	-4	-1	2.9	2
Nc1cc(=O)[nH]c(SCc2ccccc2Cl)n1	3.9%	0.1	-2	-12	14	x
COCc1[nH]nc2c1C(C1C=CCCC1)C(C#N)=C(N)O2 (configuration not stated)	u	0.5	1	-13	-1.7	-14
COc1ccccc1/C=C1/C(=O)N(c2cc(C)cc(C)c2)C(c2cccc([N+](=O)[O-])c2)S1(=O)=O (configuration not stated)	2.7%	1.1	-10	6	3.0	0
NC(=O)CCN1CCN(Cc2nc(C(c3ccccc3)c3ccccc3)no2)CC1	0.1%	0.2	-11	3	0.5	1
CCOC(=O)C(Cc1ccccc1)C(=O)Nc1ccc(N(CC)CC)cc1 (configuration not stated)	0.6%	1.5	-3	u	1.7	-29
Cc1ccc(NNC(=O)c2ccno2)cc1Cl	0.6%	-0.7	-39	3	-14	x
COc1ccc(/C=C/C(=O)c2ccccc2O)cc1CN1CCOCC1	3.9%	-0.4	-21	-18	-3.7	-13
COc1cc(C(=O)NNC2=NC(C)(C)Cc3cc(C)c(C)cc32)cc(OC)c1OC	14%	3.4	-2	5	-3.6	3
O=C(CCNc1ccc(F)cc1)c1ccco1	-0.4%	-0.5	12	-2	1.4	2
O=C(c1ccc(-c2ccccc2)cc1)C1CCCN(C(=O)Cn2cncn2)C1 (configuration not stated)	0.6%	0.6	-2	10	-5.5	0
O=S(=O)(NCCO)c1ccc2c(c1)Cc1cc(S(=O)(=O)NCCO)ccc1-2	-1.9%	-0.1	-2	8	-2.6	10
Cc1cccc(OCC(=O)O/N=C(\N)Cc2ccc(Cl)cc2)c1	2.7%	2.3	-10	96	2.0	73
CC1CCC(NC(=O)CN2C(=O)c3ccccc3S2(=O)=O)CC1 (configuration not stated)	1.0%	2.6	-1	7	2.9	1
COc1ccc(-c2cc(C(F)F)n3ncc(C(=O)N4CCc5ccccc5C4)c3n2)cc1	-1.9%	1.1	-3	28	-4.0	25
CC(C)(C)c1cc[n+](/C(C(=S)Nc2ccccc2F)=C(/[O-])c2ccc3c(c2)OCCO3)cc1	1.6%	-0.7	6	2	-4.4	6
COc1ccc(C(=O)OCC(=O)c2ccc(CNC(C)=O)s2)cc1	0.3%	0.6	-9	7	-1.3	-15
Cc1ccc(S(=O)(=O)N2C[C@H]3[C@H]4C(=O)N(c5ccccc5)C(=O)[C@H]4C[C@H](OC(=O)Nc4cccs4)[C@@]3(O)C2)cc1	0.3%	-0.3	-1	4	-8.3	-4
CN1C(=O)c2cccc3c(S(=O)(=O)Nc4ccccc4F)ccc1c23	2.3%	0.9	-5	-6	-3.4	-4
CC(=O)c1cccc(NC(=O)CCOc2ccccc2)c1	3.0%	-0.3	-26	0	-3.2	-6
CCN(CC)CCCNC(=O)c1ccc(C)c(NC(=O)C2=C(C)OCCS2)c1	0.8%	x	-4	6	0.2	10
Cc1nn(C(C)C(=O)NNC(=S)Nc2ccc(F)cc2)c(C)c1[N+](=O)[O-] (configuration not stated)	4.3%[38.3 µM]	0.2	-12	-2	-1.3	-14
CCOc1ccccc1CN1CCN(Cc2ccon2)CC1CCO (configuration not stated)	-1.8%	1.5	-4	6	2.3	-3
O=C1CC(C(=O)N2CCN(Cc3ccccc3)CC2)CN1Cc1ccccc1 (configuration not stated)	4.6%	-0.5	-17	9	-1.0	1
O=C(Oc1ccc(/C=N/NC(=O)c2ccccn2)cc1)c1cccc(F)c1	-1.6%	0.6	10	-5	-3.3	0
CSc1ccccc1C(=O)C1CCCN(C(=O)c2cncs2)C1 (configuration not stated)	-0.7%	0.8	-7	0	0.9	2
Cc1csc(NC(=O)CSc2nnc(CCNC(=O)c3ccc(Cl)c(Cl)c3)n2C)n1	5.5%	0.0	-14	2	0.8	-1
Remaining list, next part.
SMILES	PINK1 modulator	TRPML1 agonist	D2 potentiator	Six1-Eya2 inh	D2 agonist	CtBP-E1A inh
c1ccc2c(N3CCCCCC3)nc(-c3ccncc3)nc2c1	-2.6%	-0.8	19	-4	-1.0	-3
O=C(CSc1ncccn1)NC1CCS(=O)(=O)C1 (configuration not stated)	-1.2%	0.4	-18	2	-0.3	2
O/C(=C\c1ccc2ccccc2n1)c1ccncc1	0.1%	11	-20	3	-4.8	-1
O=C(CSc1ccc(-c2cccnc2)nn1)Nc1ccccc1	0.4%	-0.4	4	-21	0.0	-1
O=C1CCC([N+](=O)[O-])C(c2ccccc2Cl)N1 (configuration not stated)	0.1%	-0.2	9	6	-3.0	2
O=C(CSc1nc(Cc2ccccc2)nc2ccccc12)c1ccc2c(c1)OCCO2	4.9%[38.3 µM]	0.5	-11	-2	-6.0	-22
Cc1nn(C)c(C(=O)N/N=C/c2ccccn2)c1[N+](=O)[O-]	1.1%	-0.5	4	-25	3.8	u
COc1ccc(CN2CCN(S(=O)(=O)c3ccc(C)cc3)CC2)cc1Br	-0.8%[38.3 µM]	-0.2	-5	-11	0.7	-1
O=C(CN1CCN(c2ccccn2)CC1)Nc1cc(F)ccc1F	1.8%	-0.1	2	10	11	4
CCC(C)(C)C1CCc2c(sc(NC(=O)c3cccs3)c2C(N)=O)C1 (configuration not stated)	5.4%	0.3	4	-13	-1.4	10

Random excerpt: two records from the list.
SMILES	PINK1 modulator	TRPML1 agonist	D2 potentiator	Six1-Eya2 inh	D2 agonist	CtBP-E1A inh
CCC(C)(C)C1CCc2c(sc(NC(=O)c3cccs3)c2C(N)=O)C1 (configuration not stated)	5.4%	0.3	4	-13	-1.4	10
O=C1CCC([N+](=O)[O-])C(c2ccccc2Cl)N1 (configuration not stated)	0.1%	-0.2	9	6	-3.0	2

More entries follow:
SMILES	PINK1 modulator	TRPML1 agonist	D2 potentiator	Six1-Eya2 inh	D2 agonist	CtBP-E1A inh
Cn1c(NCCOc2ccccc2Cl)nc2cc(-c3ccc(F)cc3)sc2c1=O	5.5%	0.2	-7	4	-4.8	2
COCc1cc(/C=N\NC(=O)COc2ccccc2)ccc1OC	-0.5%	-0.8	-13	-9	-5.1	1
COCCNC(=O)Cn1nc(C(F)(F)F)c(Cl)c1C	-0.6%	0.0	-1	25	-4.8	0
COc1ccc(-c2cc(N3C(=O)Nc4ccccc4N3O)n[nH]2)c(OC)c1	-1.1%	-0.3	-3	1	-0.5	3
Cc1cc(NC(=O)c2c(F)cccc2F)n(-c2nc3ccccc3[nH]2)n1	9.3%[38.3 µM]	2.7	-3	-7	-1.2	-3
Cc1ccc(S(=O)(=O)CCC(=O)NCc2ccco2)cc1	-0.9%	-0.7	12	2	-3.0	5
O=C(NNC(=O)C(O)(c1ccccc1)c1ccccc1)C1CC1	-1.6%	0.8	-4	-10	-6.0	-10
C/C(CC(=O)NCc1ccco1)=N\NC(=O)Cc1cccc2ccccc12	0.8%	-0.9	-12	0	-1.6	0
O=C(NC1CCCCC1)NC1CCN(C(=S)NCc2ccco2)CC1	-4.8%[38.3 µM]	0.8	-1	4	-0.4	6
COc1cccc(CNc2ccc(F)c(Cl)c2)c1OC	-4.2%[38.3 µM]	0.9	-7	4	1.0	9
O=C(N/N=C/C=C/c1ccccc1)c1ccccn1	4.1%	0.8	-8	-23	-1.4	-12
CN(CC#CCC(c1ccccc1)c1ccccc1)C(C)(C)C	-0.3%[38.3 µM]	0.2	-16	-15	0.0	-20
[N-]=[N+]=NC[C@H](Cc1ccccc1)N1CC[C@@H](O)CCC1=O	2.2%	-0.4&-0.7	11	4	0.9	2
Cn1c(=O)[nH]c(=O)c2c1nc([N+](=O)[O-])n2Cc1ccccc1	-1.3%	2.6	6	-11	3.0	-3

Copied from the list.
Entry for Cc1ccc(S(=O)(=O)CCC(=O)NCc2ccco2)cc1 in D2 potentiator: 12
Entry for COc1ccccc1/C=C1/C(=O)N(c2cc(C)cc(C)c2)C(c2cccc([N+](=O)[O-])c2)S1(=O)=O (configuration not stated) in D2 agonist: 3.0
Entry for COCc1cc(/C=N\NC(=O)COc2ccccc2)ccc1OC in D2 potentiator: -13
